FPRL1 binder – human FPRL1 ligand, with FPR counter-screen | AID 441 | 24,000 tested, 0.3% active | P25090 | FPRL1-expressing cells, fluorescent ligand binding inhibition, flow cytometry | inhibition, %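 (tested at 6.7 µM)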;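 note: 0% = buffer alone and 100% = receptor blocker peptide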
Target sequence (P25090 whole entry, looked up): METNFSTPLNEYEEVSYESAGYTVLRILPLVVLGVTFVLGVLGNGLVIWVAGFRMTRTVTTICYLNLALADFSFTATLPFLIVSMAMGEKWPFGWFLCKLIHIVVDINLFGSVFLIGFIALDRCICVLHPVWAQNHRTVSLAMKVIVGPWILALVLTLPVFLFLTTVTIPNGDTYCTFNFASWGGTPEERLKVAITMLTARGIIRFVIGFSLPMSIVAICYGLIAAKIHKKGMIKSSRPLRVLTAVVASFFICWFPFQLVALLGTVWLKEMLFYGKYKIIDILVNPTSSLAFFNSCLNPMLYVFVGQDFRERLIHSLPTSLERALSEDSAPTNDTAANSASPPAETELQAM
VCAM-1 imaging – inhibitors of TNFa-induced VCAM-1 surface display, imaging, high-content imaging, pooled HUVEC, TNFa stimulus (AID 456). HUVEC TNFa-induced VCAM-1 surface expression, immunofluorescence imaging; numbers were filed only for top-ranked candidate wells. inhibition, % at 5 µM; hits with a dose series show IC50 in µM. 10,000 tested, 0.2% active;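 active = top tenth filtered wells with inhibition above zero that passed visual or statistical confirmation; inactive = the rest, including hits rejected on review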;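 note: 0% = stimulated vehicle wells and 100% = unstimulated cells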
VCAM-1 inhibition – inhibitors of TNFa-induced VCAM-1 surface display, cell-based, plate reader, pooled HUVEC, TNFa stimulus (AID 454); HUVEC TNFa-induced VCAM-1 surface immunofluorescence, plate reader; numbers were filed only for top-ranked candidate wells; inhibition, % at 5 µM; 10,000 tested, 0.2% active;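 active = compound among top-ranked inhibitors of TNF-induced VCAM-1 adhesion protein staining, with the hit upheld by image or statistical review; inactive = the rest, including hits rejected on review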;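 note: 0% = TNFa with vehicle and 100% = cells without TNFa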
FPR ligand – human FPR ligand, with FPRL1 counter-screen; P21462; FPR-expressing cells, fluorescent ligand binding, flow cytometry; inhibition, %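 (tested at 6.7 µM)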; 24,000 tested, 0.74% active; AID 440;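 note: 0% = buffer wells and 100% = receptor blocker peptide wells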
Target sequence (P21462 whole entry, looked up): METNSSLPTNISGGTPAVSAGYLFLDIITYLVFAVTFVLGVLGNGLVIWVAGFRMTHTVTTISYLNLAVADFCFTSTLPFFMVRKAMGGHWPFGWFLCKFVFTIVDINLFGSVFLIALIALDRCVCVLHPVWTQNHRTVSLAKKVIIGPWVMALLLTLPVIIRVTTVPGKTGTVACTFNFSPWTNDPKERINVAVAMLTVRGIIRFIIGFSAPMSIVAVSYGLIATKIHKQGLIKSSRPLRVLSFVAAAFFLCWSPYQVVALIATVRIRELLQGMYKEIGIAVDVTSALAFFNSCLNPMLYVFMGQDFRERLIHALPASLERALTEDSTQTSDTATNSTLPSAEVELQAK
VCAM-1 augmentation – boosters of cytokine-driven VCAM-1 levels – imaging, high-content imaging, pooled HUVEC, TNFa stimulus (AID 457); Pooled HUVEC, TNFa-induced VCAM-1 immunofluorescence imaging; hits of this screen are not shown here; calls only; 10,000 tested, 0.2% active;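 active = a top-ranked rise in VCAM-1 staining upheld on image or statistical review; inactive = the rest, including candidates rejected on review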;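 note: compounds tested at 5 µM in the well; cells exposed to compound for 24 hours before fixing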
* = called active by the depositor; i = inactive; nt = not tested or not shown.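 Rule for the calls, unless noted: active = mean above 30%; inconclusive = self-fluorescent; inactive = the rest.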

SMILES	FPRL1 binder	VCAM-1 imaging	VCAM-1 augmentation	VCAM-1 inhibition	FPR ligand
CCN(CC)CCCN1C(=O)C(=O)/C(=C(/O)c2ccc(Cl)cc2)C1c1ccccn1 (centres undefined)	4	nt	nt	nt	-2
Cc1cc(OC(=O)N2CCOCC2)cc(C)c1Cl	-8	i	i	i	1
Cc1nc2ncnn2c(C)c1CCC(=O)NCc1ccccc1	-3	nt	nt	nt	5
CC(C)(C)c1ccc(C(=O)NCCC(=O)NCc2ccco2)cc1	-6	nt	nt	nt	8
Cc1ccc(S(=O)(=O)N2CCN(c3nc(C(C)C)c4c(c3C#N)CC(C)(C)OC4)CC2)cc1	-5	i	i	i	-5
CC(=O)Nc1cccc(NS(=O)(=O)c2cccc3nsnc23)c1	4	nt	nt	nt	5
N#Cc1nc(N)nc(N(c2ccccc2)c2ccccc2)n1	0	nt	nt	nt	-3
CCn1cc(S(=O)(=O)CC(=O)Nc2ccc3c(c2)OCCO3)c2ccccc21	9	nt	nt	nt	7
Cc1cc(NS(=O)(=O)c2ccc(NC(=O)COc3ccc(Cl)cc3)cc2)no1	-1	i	i	i	1
CCC(C)N1CC23C=CC(O2)C(C(=O)OC)C3C1=O (centres undefined)	-2	nt	nt	nt	-4
CCCCn1c(NCCC)nc2c1c(=O)[nH]c(=O)n2C	2	i	i	i	3
COC(=O)c1cc2ccsc2n1Cc1cc(=O)n2ccccc2n1	9	nt	nt	nt	13
COc1ccc(S(=O)(=O)NC(CC(=O)NCCc2ccc(OC)c(OC)c2)c2ccco2)cc1 (centres undefined)	-3	nt	nt	nt	-3
Fc1ccc2nc(Nc3nc4c(s3)CCCC4)sc2c1	-20	nt	nt	nt	-14
CCOc1ccc(-n2c(=O)c3c4c(sc3n(CC(=O)NCc3ccco3)c2=O)CCC4)cc1	-5	nt	nt	nt	1
CCCCn1c(SCC(=O)Nc2ccc(OC)cc2)nc2ccc(N3CCOCC3)cc2c1=O	-13	i	i	i	-4
CC12CN3CCN(CC(C3)C1(O)CN1CCCCC1)C2 (centres undefined)	0	i	i	i	4
O=C(Nc1cccc2ccccc12)c1cnccn1	2	i	i	i	-4
Cc1cc(C)cc(N2CCCn3c2nc2c3c(=O)n(CCN3CCOCC3)c(=O)n2C)c1	4	i	i	i	-2
O=C(Nc1ccc(Cl)c(Cl)c1)N1CCC(N2CCCCC2)CC1	2	nt	nt	nt	-6
Cc1ccc(Cl)cc1N1CCN(C(=O)CCS(=O)(=O)c2cccc3nonc23)CC1	-7	nt	nt	nt	-11
COc1cc(C2c3c(n[nH]c3C)C(=O)N2c2ccc(Br)cc2)ccc1O (centres undefined)	-2	i	i	i	6
CC1CCN(C(=O)Cn2cc3c(n2)CCCC3)CC1	10	i	i	i	12
CCN(CCCNC(=O)CN1C(=O)COc2ccccc21)c1cccc(C)c1	-3	nt	nt	nt	3
c1ccc2c(c1)CNc1ccccc1C2	-1	i	i	i	2
O=C1NC(=O)C(CC(=O)N(Cc2ccco2)C2(C(=O)NC3CCCCC3)CCCCC2)N1 (centres undefined)	-6	nt	nt	nt	-1
CCOc1ccccc1C1CC(=O)Nc2cc3c(cc21)OCO3 (centres undefined)	-1	i	i	i	2
CCC(C)C(NS(=O)(=O)c1ccc(C)cc1)C(=O)NCCN1CCOCC1 (centres undefined)	6	nt	nt	nt	-1
COc1ccc2c(C(=O)CN(C)C3CCCCC3)c[nH]c2c1	15	i	i	i	-5
NC(=O)C1(N2CCCCC2)CCN(C(=O)CCCn2c(=O)[nH]c3ccsc3c2=O)CC1	4	nt	nt	nt	0
Cn1c(=O)n(CCC(=O)O)c2ccccc21	-2	i	i	i	6
COc1ccc(CC(=O)Nc2ccc(-c3noc(-c4cc(OC)c(OC)c(OC)c4)n3)cc2)cc1	0	nt	nt	nt	-1
COCCn1nnnc1C(C(C)C)N1CCN(C(=O)c2ccco2)CC1 (centres undefined)	10	i	i	i	-2
O=C(CCn1c(=S)[nH]c2cc3c(cc2c1=O)OCO3)N1CCN(c2ccccn2)CC1	-3	nt	nt	nt	7
Cc1cc(=O)oc2cc(OCC(=O)OCc3nnc(-c4ccccc4)o3)ccc12	-2	i	i	i	0
C=CCn1c(SCC(=O)Nc2cccc(OC)c2)nnc1-c1cccnc1	0	i	i	i	2
Cc1cc(C)nc(N2CCC(C(=O)NC3CCCCCC3)CC2)n1	3	i	i	i	14
O=C(Nc1nccs1)NC(C(F)(F)F)C(F)(F)F	5	i	i	i	9
Cc1cc(NC(=O)CCC(=O)N(CC2CCCO2)C(C(=O)NC2CCCC2)c2ccccc2C)no1 (centres undefined)	26	i	i	i	19
Cc1ccc(NC(=O)COc2ccc(/C(N)=N/O)cc2)cc1C	1	nt	nt	nt	-3

Looked up above:
For FPRL1 binder, `Cc1ccc(Cl)cc1N1CCN(C(=O)CCS(=O)(=O)c2cccc3nonc23)CC1` shows -7
For FPRL1 binder, `COc1ccc2c(C(=O)CN(C)C3CCCCC3)c[nH]c2c1` shows 15

Later entries.
SMILES	FPRL1 binder	VCAM-1 imaging	VCAM-1 augmentation	VCAM-1 inhibition	FPR ligand
O=C1NCCCc2c1oc1ccc(O)cc21	2	nt	nt	nt	-2
COc1ccc(OC)c(C(=O)c2coc3ccc(O)c(CN4CCOCC4)c23)c1	0	i	i	i	-6
O=S(=O)(NCc1ccccc1)c1ccc2c(c1)OCCO2	2	i	i	i	0
COCCn1nnnc1C(c1cc2cc(C)cc(C)c2[nH]c1=O)N1CCN(c2ccccc2F)CC1 (centres undefined)	4	i	i	i	6
Cc1ccc(Cn2c(C)nc3c(c2=O)c2nc4ccccc4nc2n3Cc2ccco2)cc1	-3	i	i	i	12
COc1ccc(/C(O)=C2/C(=O)C(=O)N(CCN3CCOCC3)C2c2ccc(C)cc2)cc1 (centres undefined)	31*	nt	nt	nt	26
Cc1ccccc1-c1nc(CN2CCCC(C(=O)NCCCN3CCOCC3)C2)c(C)o1 (centres undefined)	3	nt	nt	nt	0
CC(O)CNc1ncnc2nc[nH]c12 (centres undefined)	-2	nt	nt	nt	-4
CCOC(=O)Cc1csc(NC(=O)c2cccc(N3C(=O)CCC3=O)c2)n1	2	nt	nt	nt	2
CCOC(=O)N1CCN(CC(O)COC2CC(C)CC(C)(C)C2)CC1 (centres undefined)	7	nt	nt	nt	0
COc1ccc(C)c(S(=O)(=O)Nc2ccc(OCC(=O)O)cc2)c1	2	nt	nt	nt	-2
O=C(CSc1nnc(Cn2c(=O)sc3ccccc32)n1-c1ccccc1)NCc1ccco1	-4	nt	nt	nt	-3
CCOc1ccc(CCN2C(=O)CCC2(C)C(=O)NC(C)CC)cc1OCC (centres undefined)	-4	nt	nt	nt	-1
CN(Cc1ccccc1)Cc1nc2c([nH]1)c(=O)[nH]c(=O)n2C	-6	i	i	i	-1
CCOC(=O)c1c(NC(C)=O)sc2c(O)c(CN3CCN(CC)CC3)ccc12	2	nt	nt	nt	-7
Fc1ccc(-c2ccc(-c3nn4c(-c5ccco5)nnc4s3)o2)cc1	-7	i	i	i	3
Cc1ccc(NC(=O)CCNS(=O)(=O)c2cccc3nonc23)cc1	-1	nt	nt	nt	0
COc1ccc(-n2c(Cc3cccn3C)nnc2SCC(=O)Nc2cc(Cl)ccc2OC)cc1	-2	nt	nt	nt	2
COc1ccccc1C(=O)NCCNC(=O)c1ccco1	2	i	i	i	-2
O=C(c1ccc(Br)o1)N(Cc1ccccc1)c1ccccn1	3	i	i	i	-8
CCOC(=O)c1ccccc1NC(=O)c1cccnc1	6	i	i	i	0
CCOC(=O)c1oc2ccccc2c1NC(=O)c1cccc(OC)c1	1	nt	nt	nt	2
CCN1CCN(C(=O)c2ccc3c(=O)n(Cc4ccccc4OC)c(=S)[nH]c3c2)CC1	-1	nt	nt	nt	-2
CCOC(=O)c1[nH]c2c(c1C)C(=O)CC(c1ccco1)C2 (centres undefined)	0	nt	nt	nt	9
COC(=O)C1=CN(C(C)C)C=C(C(=O)OC)C1c1cc2c(cc1Br)OCO2	4	i	i	i	3
COc1ccc(CCNc2oc(COc3ccc(F)cc3)nc2C#N)cc1	-2	i	i	i	9
c1ccc(N(c2ccccc2)c2nc(N3CCCC3)nc(-n3ccnc3)n2)cc1	-6	nt	nt	nt	-5
COc1cccc(NC(=O)NCCCN2CCN(c3ccc(F)cc3)CC2)c1	-9	nt	nt	nt	-1
CCN(CC)S(=O)(=O)c1ccc(NC(=O)CN(c2cccc(F)c2)S(C)(=O)=O)cc1	-5	i	i	i	-4
COC(=O)COc1ccc(C(=O)OC)cc1	6	i	i	i	-15
Cc1c(C(=O)NC(C)C)oc2c1-c1[nH]ncc1CC2	-2	nt	nt	nt	4
COCCCNC(=O)CCCn1c(=O)c2ccccc2n(CC(=O)Nc2c(C)cc(C)cc2C)c1=O	1	nt	nt	nt	-9
COc1ccc(OCC(O)COc2ccc(C(=O)O)cc2)cc1 (centres undefined)	4	nt	nt	nt	-1
O=c1cc(O)c2c(=O)[nH]c(=O)n(-c3ccccc3)c2[nH]1	-1	nt	nt	nt	4
CCN(CC)CCn1c2ccccc2c2nc(C)sc21	0	i	i	i	4
O=c1cc(N2CCC3(CC2)OCCO3)[nH]c(=O)n1-c1ccc(Br)cc1	-9	nt	nt	nt	-9
COC(=O)c1ccccc1NC(=O)Cn1cc(Br)cn1	-9	nt	nt	nt	-12
O=c1[nH]c2ccc(Br)cc2c(-c2ccccc2)c1N1CCOCC1	0	i	i	i	-9
O=C(O)c1c[nH]c2ccc(S(=O)(=O)N3CCN(c4ccc(F)cc4)CC3)cc2c1=O	7	i	i	i	2
Cc1ccc(N2C(=O)c3oc4ccccc4c(=O)c3C2c2cccc(O)c2)nc1 (centres undefined)	1	i	i	i	4
COc1ccc(Nc2nnc(Cc3ccc(Cl)cc3)c(=O)[nH]2)c(OC)c1	1	nt	nt	nt	-1
CC(C)CCNC(=O)CCCn1c(=O)[nH]c2ccc(Br)cc2c1=O	14	nt	nt	nt	-4
CCS(=O)(=O)N1CCC(C(=O)NCCCN2CCC(Cc3ccccc3)CC2)CC1	6	nt	nt	nt	0
COc1cccc(CN2CCN(C(=O)c3ccco3)CC2)c1OC	3	i	i	i	8
CC(=O)Nc1ccc(S(=O)(=O)N2CCN(C34CC5CC(CC(C5)C3)C4)CC2)cc1	-3	nt	nt	nt	-8
O=C(O)Cc1coc(-c2ccc(F)cc2)n1	-7	nt	nt	nt	-3
c1ccc(N2CCN(c3nnc(Cc4cccnc4)c4ccccc34)CC2)nc1	-2	nt	nt	nt	1
COc1ccccc1-n1cnc2cc(C(=O)NCC3CCCO3)ccc21 (centres undefined)	-1	nt	nt	nt	0
CCOC(=O)CN1CC23C=CC(O2)C(C(=O)NCCc2ccccc2)C3C1=O (centres undefined)	-2	nt	nt	nt	3
c1ccc2c(c1)nc(Nc1ccc3c(c1)OCO3)c1nnnn12	-10	nt	nt	nt	-12

(continued)
SMILES	FPRL1 binder	VCAM-1 imaging	VCAM-1 augmentation	VCAM-1 inhibition	FPR ligand
O=C(NCCCN1CCCCCC1)c1ccc(CS(=O)(=O)Cc2ccccc2F)o1	0	nt	nt	nt	12
Cc1ccccc1Cn1c(=O)n(CCCC(=O)NCc2ccco2)c(=O)c2ccccc21	2	nt	nt	nt	-2
O=S(=O)(Cc1ccc(Cl)cc1)Nc1ccc2c(c1)OCO2	-8	i	i	i	-1
Cc1onc(-c2ccccc2Cl)c1C(=O)NCc1cccs1	-5	nt	nt	nt	2
CCOc1ccc(N(CC(=O)Nc2ccccc2C)S(=O)(=O)c2c(C)noc2C)cc1	1	nt	nt	nt	15
CCc1cc2c(cc3c(=O)n(CC(=O)N4CCN(c5ccccn5)CC4)nc(CC)n32)s1	-4	nt	nt	nt	4
COc1ccccc1N1CCN(CC(=O)c2ccc3ccn(C(C)=O)c3c2)CC1	7	nt	nt	nt	-2
O=C(OCC#CCSc1nnc(-c2ccncc2)o1)c1cccs1	-1	i	i	i	-6
Cc1cc(NC(=O)CC(CN(C)S(=O)(=O)c2ccccc2)c2ccccc2)no1 (centres undefined)	-3	nt	nt	nt	3
CCOc1cc(C2/C(=C(/O)c3ccc(OC(C)C)cc3)C(=O)C(=O)N2CCCOC)ccc1O (centres undefined)	-1	i	i	i	19
Cc1nc2sc(C(c3ccccc3)N3CCN(C(=O)c4ccco4)CC3)c(O)n2n1 (centres undefined)	12	nt	nt	nt	1

Some of the compounds tested; the hit share may differ from the screen's.
